# Choline anaer gr – choline-fed anaerobic bacterial growth inhibition; Gram-negative bacterium anaerobic choline minimal medium, absorbance growth; active compounds read low; many inactives read as strong as hits in the columns shown; calls only; 0.2% of 55,000 active; AID 1963822;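 active means growth z-score on choline under -2 at 7 or 20 h with little or no fall on glycerol, limits in tiers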;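 further: stock transfer was 300 nL into about 50 µL; the organism is E. coli; final concentration not given here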
# Choline anaer gr early – also measured in Choline anaer gr; calls as there; z-score; measured here: choline growth z-score, timepoint 1;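 score of optical density at 7 h as mean of two plates; lower means less growth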
# Numbers without * were called inactive; i = inactive; & = joins results of further samples. These rows are one share of the data; rates above refer to the full screens.
# The line under a structure holds: Choline anaer gr | Choline anaer gr early
- CCN(CC)S(=O)(=O)c1ccc2c(c1)c(=O)c(C(=O)N1CCN(c3ccccn3)CC1)cn2C
    i | 0.77
- O=c1cc(-c2ccccc2)nc(NCCc2ccccc2)[nH]1
    i | -1.37
- O=S(=O)(Cc1ccccc1)N1CC(OCc2ccc(F)cc2)C1
    i | -1.62
- COc1ccc(-c2nnc(SCc3cc(=O)n4ccsc4n3)o2)cc1OC
    i | 0.88
- CCC1OC(=O)C(C)C(OC2C[C@@](C)(OC)C(O)C(C)O2)C(C)C(OC2OC(C)CC(N(C)C)C2O)[C@@](C)(O)CC(C)[C@@H]2NC(COCCOC)OC(C2C)[C@]1(C)O (stereo partly specified)
    i | -2.6
- COc1ccc(-c2nc(CCNC(=O)C(C)Oc3ccc(C)c(C)c3)cs2)cc1 (stereo unspecified)
    i | 1.55
- Cc1cc(OCc2nc(C)c(C(=O)NCC(C)C)s2)ccc1Cl
    i | 0.06
- CC1(C)S[C@@H]2[C@H](NC(=O)COc3ccccc3)C(=O)N2[C@H]1C(=O)O
    i | 0.7
- O=C(CN(Cc1ccccc1Cl)C(=O)c1ccc(F)cc1)N1CCNCC1
    i | 0.02
- CCOC(=O)CNC(=O)c1sc2nc(C)nc(N3CCN(c4ccccn4)CC3)c2c1C
    i | 0.43
- O=C(Cc1csc(NC(=O)C2CC2)n1)NC1CC1
    i | -0.45
- O=S(=O)(c1ccc(F)cc1)N1CCCN(c2nc3ccccc3n3cccc23)CC1
    i | 1.67
- O=C(CCc1nc2sc3c(c2c(=O)[nH]1)CCCCC3)Nc1ccc(F)c(Cl)c1
    i | 0.23
- COc1ccc2c(c1)NC1(CCN(C(=O)Nc3ccc(OC)cc3OC)CC1)c1cccn1-2
    i | -0.34
- O=C(Nc1nccs1)c1ccccc1-c1nc(-c2ccc(F)cc2)no1
    i | -0.1
- CCCCCCC[C@H](O)/C=C/[C@@H]1[C@@H](C/C=C\CCCC(=O)O)[C@@H](O)C[C@H]1O
    i | -0.28
- COc1ccc(Cc2nn3c(Cc4ccc(OC)cc4)nnc3s2)cc1
    i | -0.1
- COc1ccc(C(=O)N(c2ccc(OC)cc2)S(=O)(=O)c2ccc3c(c2)n(C)c(=O)n3C)cc1
    i | 0.5
- COCCNS(=O)(=O)c1cc(-c2nc(CC(C)C)cs2)cs1
    i | 0.02
- O=C(c1cc2occc2c(Nc2ccc(Cl)cc2)n1)N1CCN(c2ccccn2)CC1
    i | -1.72

# No new results follow: entries from further up.
# The line under a structure holds: Choline anaer gr | Choline anaer gr early
- O=S(=O)(c1ccc(F)cc1)N1CCCN(c2nc3ccccc3n3cccc23)CC1
    i | 1.67
- O=C(CCc1nc2sc3c(c2c(=O)[nH]1)CCCCC3)Nc1ccc(F)c(Cl)c1
    i | 0.23
- COc1ccc2c(c1)NC1(CCN(C(=O)Nc3ccc(OC)cc3OC)CC1)c1cccn1-2
    i | -0.34
- O=C(Nc1nccs1)c1ccccc1-c1nc(-c2ccc(F)cc2)no1
    i | -0.1
- CCCCCCC[C@H](O)/C=C/[C@@H]1[C@@H](C/C=C\CCCC(=O)O)[C@@H](O)C[C@H]1O
    i | -0.28

# Later entries
# The line under a structure holds: Choline anaer gr | Choline anaer gr early
- Cc1nc(Nc2ccccc2)nc(Nc2ccccc2)c1NC(=O)c1ccccc1
    i | 1.48
- CC(C)(C)NC[C@H](O)c1ccc(O)c(CO)c1
    i | 0.89&0.5
- COc1ccc(NC(=O)Cn2nc(-n3cccc3)c3c(C)cc(C)nc32)cc1
    i | -0.68
- NC(=O)CCC/C=C\C[C@@H]1[C@@H](/C=C/[C@@H](O)CCc2ccccc2)[C@H](O)C[C@@H]1O
    i | 1.19
- CCCn1c(=O)c2sccc2n2c(SCc3ccc(Cl)cc3)nnc12
    i | 1.05
- O=C(Cc1cn2cc(Br)ccc2n1)N1CCSCC1
    i | 0.38
- CC(=O)Nc1ccccc1-c1nc2ccccc2n(CC(=O)c2ccc(C)cc2)c1=O
    i | 0
- CCOC(=O)c1ccccc1NC(=O)Cn1cnc2onc(-c3ccc(Cl)cc3)c2c1=O
    i | 1
- CC1CCN(C(=O)C2CCCN(S(=O)(=O)c3cn(C(C)C)cn3)C2)CC1 (stereo unspecified)
    i | 0.43
- Cn1nc(C(=O)Nc2ccc(F)c(Cl)c2)c2c1-c1ccsc1CC2
    i | 2.01
- O=C(Cn1ncc2c1-c1ccccc1OC2)NCc1ccccc1
    i | 1.54
- O=S(=O)(c1cccnc1)N1CCc2[nH]ncc2C1
    i | 0.08
- O=C(C1CCN(S(=O)(=O)c2cccc3cccnc23)CC1)N1CCN(c2ccccc2)CC1
    i | 0.99
- Cc1cccc(NC(c2ccsc2)c2cc(C)sc2NC(=O)c2ccccc2)n1 (stereo unspecified)
    i | -0.07
- O=C(Nc1cccc2nsnc12)c1ccccc1
    i | -1.72
- COC(=O)c1ccc2c(=O)n(Cc3ccc(C)cc3)c(N3CCN(c4cccc(C)c4)CC3)nc2c1
    i | 1.02
- COc1cccc(-n2nnc3c(N4CCN(C(=O)CCC5CCCC5)CC4)ncnc32)c1
    i | 1.73
- Cc1ccc(-c2nc3sc(CCNC(=O)c4ccccc4)c(C)n3n2)cc1
    i | -0.59
- Cc1cc2c(cc1S(=O)(=O)N1CCCC(C(=O)NC3CC3)C1)OCC(=O)N2 (stereo unspecified)
    i | 0.21
- CCOc1ccc(NC(=O)N2CCCN(c3ccc(=O)n(-c4ccc(F)cc4)n3)CC2)cc1
    i | -1.08
- COc1cc(C2Nc3c(C)cc(C)cc3[C@H]3OCC[C@@H]23)cc(Cl)c1OC (stereo partly specified)
    i | 0.08
- CC(=O)O[C@@]12C[C@@H](C)[C@@]3(O)[C@@H](C=C(CO)C[C@]4(O)C(=O)C(C)=C[C@@H]34)[C@@H]1C2(C)C
    i | -0.49
- O=C(Nc1nc2ccccc2s1)c1cc(-c2cccnc2)nc2ccccc12
    i | -0.11
- CCOC(=O)c1cc(NC(=O)NC2CCCCC2)c(C)nc1C
    i | -0.41
- CC(C)c1cc(C2CCCN2C(=O)c2cc(C3CCCCC3)no2)on1 (stereo unspecified)
    i | -1.61
- CC1CN(C(=O)c2cccnc2)c2ccccc2NC1=O (stereo unspecified)
    i | -1.59
- CCCCOc1ccc(C(=O)Nc2ccc3c(c2)CCCN3C(C)=O)cc1
    i | -0.05
- Cc1c(S(=O)(=O)NCCc2nc(-c3ccc(F)cc3)n[nH]2)cnn1C(F)F
    i | 0.61
- COc1ccc(S(=O)(=O)N2CCN(c3ccccc3F)CC2)cc1-c1noc(C)n1
    i | -0.54
- Cc1ccc2[nH]cc(CCNC(=O)CSCc3nnc(C(=O)Nc4ccc(F)cc4)s3)c2c1
    i | 0.52
- Cc1oc2ncnc(N3CCCC(C(=O)N4CCN(C5CCCCC5)CC4)C3)c2c1C (stereo unspecified)
    i | -1.06
- Cc1nc(-c2cc3ccccc3nc2N2CCN(C(=O)COc3ccccc3)CC2)no1
    i | -0.05
- Cc1ccc(C)c(N2CCN(C(=O)Cn3ncc4ccccc43)CC2)c1
    i | 1.46
- COC(=O)c1sccc1NC(=O)c1cc(=O)n2c(nc3cc(C)c(C)cc32)s1
    i | 0.99
- Cc1cc(=O)n(-c2ccccc2)n1C
    i | 0.66&0.6
- CCc1nn2c(=O)cc(CN(CC)c3ccc(OC)cc3)nc2s1
    i | 0.08
- Cc1nc(-c2ccc(C)c(-n3cc(C(=O)NC4CCCCC4)c(C)n3)c2)no1
    i | -0.22
- O=C(NCCSc1ccccc1)c1nc(-n2cnnc2)ccc1Br
    i | -0.6
- Cc1cc(C2CCCN2Cc2ccc(C)s2)no1 (stereo unspecified)
    i | -0.91
- O=c1[nH]cc(S(=O)(=O)NC2CC2)c(=O)[nH]1
    i | 0.12
- CC(C)n1nc2c(S(=O)(=O)N3CCN(c4ccc(F)cc4)CC3)cccn2c1=O
    i | 1.24
- Cc1noc(C)c1C1CCCN1Cc1ccc(OCc2ccccc2)cc1 (stereo unspecified)
    i | 1.02
- COc1ccc(NC(=O)c2cccc(NC3=NC4CS(=O)(=O)CC4S3)c2)cc1OC (stereo unspecified)
    i | 0.01
- c1ccc(N2CCN(c3c4c(nc5ncnn35)CCC4)CC2)nc1
    i | -0.1
- O=C(Cn1cnc2c(sc3ncccc32)c1=O)Nc1ccc(F)cc1Cl
    i | -0.37
- COc1ccc(-c2cc(C(=O)NCc3ccccc3)[nH]n2)cc1S(N)(=O)=O
    i | -0.02
- CCN1C(=O)C2(c3ccccc31)C(C(=O)Nc1cccc(Br)c1)CC1CSCN12 (stereo unspecified)
    i | -1.15
- CCOc1ccc(NC(=O)c2cc3c([nH]c2=O)CC(C)(C)CC3=O)cc1
    i | 0.26
- CC1(C(=O)NC2CCCC2)Cn2c(nc3ccccc32)C(=O)N1CCCN1CCOCC1 (stereo unspecified)
    i | 0.83
- COc1ccc(N2CCN(c3cc(C(=O)O)c4cc(NC(=O)C5CCC5)ccc4n3)CC2)cc1
    i | -0.28

# New compounds follow
# The line under a structure holds: Choline anaer gr | Choline anaer gr early
- O=C(NCc1ccc(Br)cc1)C1CCN(c2cc(-c3cccc(F)c3)ncn2)CC1
    i | -0.05
- COc1ccccc1CCNC(=O)Cn1c(=O)c(=O)n(Cc2ccc(Cl)cc2)c2ccccc21
    i | 0.11
- CCN1CCN(C(=O)NC2COc3ccccc3C2)CC1 (stereo unspecified)
    i | -0.11
- Cc1nccc2[nH]c(=O)c(C(=O)NCCCN3CCN(c4ccccc4F)CC3)cc12
    i | -0.66
- CN(C)c1ncnc2c1c(-c1ccccc1)cn2-c1ccccc1
    i | 0.85
- C=CCn1c(CN(c2ccc(F)cc2)S(C)(=O)=O)nnc1SCC(=O)N1CC(C)CC(C)C1 (stereo unspecified)
    i | 0.86
- COc1ccc2c(c1)CCc1c-2n[nH]c1C(=O)N1CCN(C(=O)c2nsc3ccc(C)cc23)CC1
    i | -0.51
- COc1ccccc1CNC(=O)C1(C)COc2c(oc3ccccc23)C(=O)N1CCC1=CCCCC1 (stereo unspecified)
    i | 1.3
- O=c1[nH]c2ccc(S(=O)(=O)Nc3ccccc3)cc2[nH]1
    i | -0.47
- Cc1nc(-c2ccc(Cl)c(S(=O)(=O)N3CCCC(C(=O)NC4CCC(C)CC4)C3)c2)no1 (stereo unspecified)
    i | 0.44

# Full records from above. Order of values: Choline anaer gr	Choline anaer gr early
# Shown for `CCN1CCN(C(=O)NC2COc3ccccc3C2)CC1` (stereo unspecified) : i	-0.11
# Shown for `COc1ccccc1CCNC(=O)Cn1c(=O)c(=O)n(Cc2ccc(Cl)cc2)c2ccccc21` : i	0.11
# Shown for `O=c1[nH]c2ccc(S(=O)(=O)Nc3ccccc3)cc2[nH]1` : i	-0.47
# Shown for `C=CCn1c(CN(c2ccc(F)cc2)S(C)(=O)=O)nnc1SCC(=O)N1CC(C)CC(C)C1` (stereo unspecified) : i	0.86
# Shown for `Cc1nc(-c2ccc(Cl)c(S(=O)(=O)N3CCCC(C(=O)NC4CCC(C)CC4)C3)c2)no1` (stereo unspecified) : i	0.44

# Continued:
# The line under a structure holds: Choline anaer gr | Choline anaer gr early
- O=C(COc1ccc(-c2nc(-c3ccccc3)no2)cc1)N1CCCCC1
    i | 0.18
- O=C(CN(Cc1ccccc1)S(=O)(=O)c1ccc(Br)cc1)N1CCN(c2ccc(F)cc2)CC1
    i | 0.76
- COc1ccccc1-c1noc(-c2cccnc2)n1
    i | 0
- Cc1cc(C)cc(NC(=O)CSc2nc3c(c(=O)[nH]2)CN(Cc2ccccc2)CC3)c1
    i | 1.17
- CC(C)(C)c1ccc(N2C(=O)CN(Cc3ccccc3Cl)[C@H]3CS(=O)(=O)C[C@H]32)cc1
    i | 0.59
- Cc1nc2ccccc2n1C(=O)c1ccccc1C(=O)O
    i | 0.24
- Cc1ccc(C)c(NC(=O)N(C)CCc2noc(C(=O)NCc3ccc(Cl)cc3)n2)c1
    i | -1.61
- Cc1cc(C)c(-c2csc(Nc3ccc(F)cn3)n2)cc1C
    i | 0.58
- Cn1nc(C(C)(C)C)cc1C(=O)NC(Cc1cccc(Cl)c1)C(=O)NCC#N (stereo unspecified)
    i | 0.67
- O=C1COc2cc(S(=O)(=O)N3CCCC3C(=O)NC3CCCCC3)c(Cl)cc2N1 (stereo unspecified)
    i | -0.68
- Cc1ccc(Cl)cc1N1CCN(CCNC(=O)c2csc(-c3ccncc3)n2)CC1
    i | 0.49
- Cc1ccc(NC(=O)N2CCN(S(=O)(=O)c3ccc4c(ccn4C)c3)CC2)cc1Cl
    i | 0.06
- Cc1ccccc1-c1nc2scc(CCNC(=O)c3ccc(Br)cc3)n2n1
    i | 0.44
- O=S(=O)(c1ccccc1Cl)N1CCN(c2ncnc3c2nnn3-c2ccc(F)cc2)CC1
    i | -0.89
- C=CCN1CC(c2nc3ccccc3n2CC(O)COc2cc(C)ccc2C)CC1=O (stereo unspecified)
    i | 0.13
- O=C(c1[nH]nc2c1CCc1ccccc1-2)N1CCC(CCN2CCCC2)CC1
    i | 0.22
- CCN1CCCn2nc(C3CCN(C(=O)NCC4CCCO4)CC3)cc2C1=O (stereo unspecified)
    i | -1.19
- CC(C)c1cc(C(=O)N2CCC(c3nc4ccccc4s3)CC2)nn1C1CCS(=O)(=O)C1 (stereo unspecified)
    i | -1.66
- Cc1ccc(C(=O)NCC2CCCO2)cc1NC(=O)C1=CSCCO1 (stereo unspecified)
    i | -0.32
- O=C(Nc1cccc(F)c1)c1nnc(C2CCCN2C(=O)c2ccc(Cl)cc2)s1 (stereo unspecified)
    i | 1.17
- COc1cc(Nc2nc(-c3nnn(-c4ccc(F)cc4F)c3C)ns2)cc(OC)c1
    i | -0.46
- CCOc1ccc(NS(=O)(=O)c2cc(C(=O)N3CCN(c4ccc(F)cc4)CC3)n[nH]2)cc1
    i | -0.54
- Cc1cccc(NC(=O)C2CCN(c3ncnc4onc(-c5ccc(F)cc5)c34)CC2)c1
    i | 0.2
- CN(C)S(=O)(=O)c1ccc2c(c1)cc(C(=O)N1CCCC1)n2Cc1ccncc1
    i | 0.38
- COCCNC(=O)c1cc2c(s1)N(C)CCC2
    i | -0.64
- Cc1nc(-c2ccc(N3CCN(C(=O)CNS(=O)(=O)c4ccccc4)CC3)cc2)no1
    i | 0.98
- COc1ccc(CCNc2ccc(-c3nc(-c4ccccc4)no3)cn2)cc1OC
    i | 2.03
- Cc1cccc(-c2cncc(C(=O)NC3CCCCC3)c2)c1
    i | -0.2
